YopH PTP inh = blocks Yersinia enterocolitica YopH tyrosine phosphatase. fluorescence Ex485/Em525. inhibition, %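 (about 10 µM by stock and volumes)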. 0.16% of 140,000 active;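 active = inhibition of 50% or more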;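 also: controls were vehicle for no effect and minimum signal wells for full effect; inactives centre near -20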
Mtb growth = M. tuberculosis H37Rv growth inhibitors, H37Rv strain (AID 1626); M. tuberculosis H37Rv growth inhibition; higher % means a stronger effect; one-dose inhibition, % at 10 µM; IC50 in µM for titrated hits; 0.95% of 220,000 active;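 active = confirmed in a dose series; inconclusive = inhibition above 80% but not taken into the dose series; inactive = below 80% or under 30% at every dose of the series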;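 also: bacteria incubated seven days before Alamar blue readout; 0% = bacteria only wells and 100% = bacteria with antibiotic wells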
Mtb bLac sens = beta-lactam sensitization of Mtb H37Rv | M. tuberculosis H37Rv growth with meropenem, percent inhibition; hits of this screen are not shown here | AID 434955 | 0.27% of 330,000 active | inhibition, % at 25 µM;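 active = about 74% or more and at least 40 points above the plate without the antibiotic, then above 30% in a dose series; inconclusive = first-round hits that could not be retested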;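 also: growth measured after seven days incubation then overnight dye step; 0% = bacteria only wells and 100% = bacteria with antibiotic; twin plates without the antibiotic show which effects depend on it; some results filed as inactive read as strong as hits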
RecA intein inh = blocks M. tuberculosis RecA intein splicing; cell-free RecA intein splicing, fluorescence; inhibition, %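 (about 9 µM by stock and volumes)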; P9WHJ3; 0.75% of 290,000 active; AID 2221; in the data active = inhibition above about 30%; inconclusive = no clear call, values can overlap the other calls;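 also: 0% = vehicle wells and 100% = reference inhibitor control wells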
Target sequence (P9WHJ3 whole entry, looked up): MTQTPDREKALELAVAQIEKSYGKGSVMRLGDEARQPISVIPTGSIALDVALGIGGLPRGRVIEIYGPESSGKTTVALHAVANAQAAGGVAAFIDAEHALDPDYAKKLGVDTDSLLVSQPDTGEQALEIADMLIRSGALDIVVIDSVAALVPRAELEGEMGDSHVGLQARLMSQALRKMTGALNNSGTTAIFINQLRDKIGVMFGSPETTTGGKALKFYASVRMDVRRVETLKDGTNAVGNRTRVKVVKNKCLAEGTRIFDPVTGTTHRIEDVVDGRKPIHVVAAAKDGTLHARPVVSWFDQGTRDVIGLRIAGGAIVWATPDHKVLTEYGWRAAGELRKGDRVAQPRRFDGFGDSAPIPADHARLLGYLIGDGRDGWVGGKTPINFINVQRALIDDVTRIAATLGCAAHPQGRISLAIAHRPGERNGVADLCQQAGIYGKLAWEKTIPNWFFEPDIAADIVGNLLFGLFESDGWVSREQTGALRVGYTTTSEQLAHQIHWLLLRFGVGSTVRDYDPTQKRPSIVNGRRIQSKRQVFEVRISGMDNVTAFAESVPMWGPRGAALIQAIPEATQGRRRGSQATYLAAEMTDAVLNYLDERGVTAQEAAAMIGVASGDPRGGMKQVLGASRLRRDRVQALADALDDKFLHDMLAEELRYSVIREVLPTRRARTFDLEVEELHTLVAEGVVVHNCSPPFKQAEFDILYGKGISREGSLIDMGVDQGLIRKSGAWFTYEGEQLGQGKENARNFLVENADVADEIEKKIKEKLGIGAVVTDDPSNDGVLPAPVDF
Arbovirus inh = arbovirus infection inhibition; arbovirus infection cell-based antiviral screen; inhibition, % at 10 µM; 0.37% of 200,000 active; AID 1251;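 active = inhibition from about 30%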;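 also: bluetongue infection of BSR cells; cell survival read as ATP light after 72 h; 0% = infected wells without compound and 100% = uninfected wells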
Arbovirus inh repeat = also measured in Arbovirus inh; calls as there; inhibition, %; measured here: 10K subset replicate screen; many hits read low in the repeat;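 first of two repeat runs on a subset; 0% = infected and 100% = uninfected wells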
An asterisk follows results filed as active; ? = inconclusive; · = no result given. A portion of the library; the hit share may differ from the screen's.

SMILES | YopH PTP inh | Mtb growth | Mtb bLac sens | RecA intein inh | Arbovirus inh | others
Nc1nc(Cl)cc(Oc2ccc(Cl)cc2)n1 | · | -1% | 3 | 0.1 | -4
O=C1NC(=O)/C(=C/c2ccc(-c3cccc([N+](=O)[O-])c3)o2)S1 | · | · | 91 | 3.6 | ·
O=c1[nH]cnc2c1nc(SCc1ccccc1)n2C1OC(CO)C(O)C1O (stereo not given) | -10 | -2% | -3 | -1.3 | 1
Cc1cccc(C)c1N=C1SC(CC(=O)Nc2c(C)cccc2C)C(=O)N1CCc1ccccn1 (stereo not given) | -8 | 10% | 5 | 1.3 | 1
Cc1coc2c(C)c3oc(=O)c(CCC(=O)N4CCC(C(=O)NCCCC(=O)O)(c5ccccc5)CC4)c(C)c3cc12 | · | · | ? | -6.5 | ·
COc1cccc(C(=O)O/N=C(\N)c2ccc([N+](=O)[O-])cc2)c1 | -32 | 6% | -3 | -0.8 | -8
CCOC(=O)C1CCN(c2ccc(-c3cccs3)nn2)CC1 | · | · | 0 | 2.1 | ·
CCOC(=O)CNC(=O)CN1C(=O)CC(c2ccco2)Sc2ccccc21 (stereo not given) | · | · | 5 | -2.2 | ·
O=C(OCc1cnc(Cl)s1)c1cccc(Cl)c1 | -37 | 6% | 3 | 2.3 | 8
CN(c1ccc(C(=O)Nc2cccnc2)cc1)S(=O)(=O)c1ccc(Cl)cc1 | · | · | 3 | 0.4 | ·
COc1cccc(CNCCc2c[nH]c3ccccc23)c1OC | · | 3% | -6 | -2.3 | -5
COc1ccc(-c2ccc(C(=O)O)o2)c([N+](=O)[O-])c1 | · | -3% | -1 | -13 | 3
CCS(=O)(=O)n1nc(C(=O)N2CCOCC2)nc1N | -33 | -2% | ? | -4.6 | 4
CCN(CC)S(=O)(=O)c1cc(NC(=O)COC(=O)Cn2cnc3ccccc32)ccc1C | -28 | -10% | -2 | 1.3 | 0
CCC(C)C(=O)N[C@@H](c1ccccc1)[C@@H](O)C(=O)O[C@H]1C[C@@]2(O)[C@@H](OC(=O)c3ccccc3)C3[C@](C)(C(=O)[C@H](OC(C)=O)C(=C1C)C2(C)C)[C@@H](O)C[C@H]1OC[C@@]31OC(C)=O (stereo not given in full) | · | · | -8 | 8.4 | ·
COc1cccc(NC(=S)N(CCc2nc3cc(C)c(C)cc3[nH]2)Cc2cccnc2)c1 | -34 | 1% | 3 | 1.6 | -6
Cc1c2cnn(-c3ccccc3)c(=O)c2c(C)n1CCCC(=O)NCCN1CCN(C)CC1 | · | 4% | -8 | 2.5 | ·
CCOC(=O)Cn1c(=O)oc2cc(S(=O)(=O)Nc3cc(OCC)ccc3OCC)ccc21 | -5 | -5% | -8 | · | 7
Cc1cc(C)cc(C(=O)NCC(=O)OC(C)C(=O)N(C)c2ccccc2)c1 (stereo not given) | · | -1% | 1 | 0.0 | 5
Cc1ccccc1N1CC(C(=O)NC2CCCC2)CC1=O (stereo not given) | · | · | 13 | -0.4 | ·
Cc1ccccc1N(C(=O)c1cccs1)c1nc2ccccc2s1 | -6 | · | -8 | 1.3 | -13
Cc1ccc(C(=O)c2coc3ccc(OCC(=O)O)cc23)cc1 | -2 | 7% | -4 | -2.0 | 8
CC(=O)OCC1(C)CN(c2ccccc2)N(C(C)=O)C1=O (stereo not given) | · | 5% | 17 | -7.0 | -28
COc1ccc(-c2nn(-c3ccccc3)cc2C(=O)NCC(c2cccs2)N2CCOCC2)cc1 (stereo not given) | · | · | -10 | -3.9 | ·
S=C(NC1CCCC1)NN1CCOCC1 | · | -7% | -6 | -1.5 | 5

Continued, overlapping the part above by 2 compounds.
SMILES | YopH PTP inh | Mtb growth | Mtb bLac sens | RecA intein inh | Arbovirus inh | others
COc1ccc(-c2nn(-c3ccccc3)cc2C(=O)NCC(c2cccs2)N2CCOCC2)cc1 (stereo not given) | · | · | -10 | -3.9 | ·
S=C(NC1CCCC1)NN1CCOCC1 | · | -7% | -6 | -1.5 | 5
N#Cc1ccccc1NC(=O)CN(Cc1ccccc1)Cc1ccccc1 | · | · | -3 | 11 | ·
CCOC(=O)Cc1csc(NC(=S)NC(=O)c2ccc([N+](=O)[O-])cc2)n1 | -11 | -3% | -1 | 0.1 | 2
CCOc1ccc(-c2csc(C3COc4ccccc4O3)n2)cc1 (stereo not given) | -25 | -2% | ? | -3.6 | ·
O=C/C(=C\Nc1ccc(C(=O)N2CCOCC2)cc1)c1nc2ccccc2o1 | · | 0% | -1 | -0.6 | 2
CC(=O)c1ccc(NC(=O)CN2CCC(C(=O)c3ccc(F)cc3)CC2)cc1 | · | · | -5 | -1.6 | ·
CCCCOc1cccc(C(=O)NC(=S)Nc2ccc(Cl)c(C(=O)O)c2)c1 | · | 0% | 2 | 1.0 | 4
CN1CCN(C(=O)c2ccc3nc(-c4ccccc4)c(-c4ccccc4)nc3c2)CC1 | · | -3% | 3 | -1.0 | -1
CCC/C(=N/NC(=O)c1csc(C)c1C)c1ccc(Cl)s1 | -2 | -3% | 49 | -0.6 | -9
Cc1nnc(NC(=O)CN2C(=O)NC3(CCCC3)C2=O)s1 | · | · | -3 | 0.0 | ·
C=CCc1ccc(OCCOc2cccc3ccc(C)nc23)c(OC)c1 | -3 | 13% | 79 | 4.2 | 10
O=C(CN1C(=O)NC2(CCCCCCC2)C1=O)NCc1cccs1 | -35 | 8% | -5 | -3.3 | 2
Cc1ccc(C(=O)Nc2cccc(NC(=O)c3ccc(C)cc3)n2)cc1 | · | · | -1 | 0.1 | ·
CCC(C(=O)N1CCC2(CC1)OCCO2)c1ccccc1 (stereo not given) | -12 | 1% | -10 | 3.4 | 1
O=C(COC(=O)c1cccs1)Nc1ccccc1Cl | · | · | 0 | -1.3 | ·
CC(C)(C)n1cnnc1Sc1ccc([N+](=O)[O-])cn1 | · | -3% | 5 | -6.7 | ·
O=C(NNC(=O)C(c1ccccc1)c1ccccc1)c1ccccn1 | -28 | 70% | 21 | 14 | -32
CCOC(=O)COc1ccc(/C=C2/SC(=Nc3ccccc3)N(Cc3cccnc3)C2=O)cc1OC | -11 | 10µM* | 98 | -4.2 | 12
Cc1cc(C)cc(NC(=S)N2CCC(c3nc4ccccc4s3)CC2)c1 | -28 | -1% | 4 | -0.2 | 4
COc1ccc([N+](=O)[O-])c(S(=O)(=O)c2ccc(Cl)cc2)n1 | · | 1% | 21 | 17 | ·
O=C1SC(SCc2ccccc2Cl)=N/C1=C\c1ccc(C(=O)O)cc1 | · | -1% | 10 | 4.1 | -6
O=C(Nc1cccc(F)c1)c1cccc2c1C(=O)N(C1CCCCC1)C2 | · | · | 2 | 0.8 | ·
CC(=O)N/C(=N/c1nc(C)cc(C)n1)Nc1ccc(C)cc1C | · | · | 89 | 1.5 | ·
CC(=O)Nc1ccc2oc(-c3ccccc3)nc2c1 | · | -12% | -6 | -2.3 | -10
N#Cc1ccc(OCC(=O)Nc2ccccc2NS(=O)(=O)c2cccs2)cc1 | -26 | 1% | 1 | 5.7 | 7
O=C(Nc1ccc(OC(F)(F)F)cc1)c1ccc2nccnc2c1 | · | 18% | 74 | 1.4 | 14

2 records drawn at random from those above, as already listed:
SMILES | YopH PTP inh | Mtb growth | Mtb bLac sens | RecA intein inh | Arbovirus inh | others
CCOC(=O)Cc1csc(NC(=S)NC(=O)c2ccc([N+](=O)[O-])cc2)n1 | -11 | -3% | -1 | 0.1 | 2
O=C(Nc1ccc(OC(F)(F)F)cc1)c1ccc2nccnc2c1 | · | 18% | 74 | 1.4 | 14

New compounds follow.
SMILES | YopH PTP inh | Mtb growth | Mtb bLac sens | RecA intein inh | Arbovirus inh | others
Cc1sc2c(c1C)C(c1ccc(C(C)(C)C)cc1)=NCC(=O)N2CC(=O)Nc1nccs1 | -30 | 5% | 39 | -4.8 | -15
Oc1c(N=NC(=S)Nc2ccccc2F)c2ccccc2n1Cc1ccc(F)cc1 | · | 2% | 28 | -3.7 | -8
O=C(CSc1nc2ccccc2n1CC(=O)NCc1ccccc1)NCc1ccco1 | -42 | 1% | -8 | -2.3 | 4
CCOc1ccc(NC(=O)CSc2nccn2C)cc1 | -12 | -5% | -2 | -0.7 | -3 | Arbovirus inh repeat=-1
CC(=O)C1=C(O)C(=O)N(Cc2ccco2)C1c1ccccc1F (stereo not given) | · | 2% | -2 | -3.7 | 3
COC(=O)C1=C(C(=O)OC)[C@@H]2N(C)c3ccc(OC)cc3[C@@]23C[C@@H](C(=O)OC)N(C(=O)c2ccc(Br)cc2)C3=N1 | · | -1% | -7 | 1.7 | ·
Brc1ccccc1-c1nnc(CSc2nnc3sc4ccccc4n23)o1 | -24 | -10% | 2 | 0.4 | 4 | Arbovirus inh repeat=-5
CN1C(=O)C(C)(C)c2cc(S(=O)(=O)N3CCCC(C(=O)NCc4ccccc4Cl)C3)ccc21 (stereo not given) | · | · | -3 | -1.1 | ·
COc1ccc(-n2nc3c(c2NC(C)=O)CS(=O)(=O)C3)cc1 | · | · | -5 | -5.8 | ·
COc1ccccc1-n1c(SCc2cc(=O)oc3cc(O)ccc23)nc2ccccc2c1=O | -29 | 3% | 37 | 7.4 | -31
CCCc1ccc(S(=O)(=O)NCC2CCCN2CC)cc1 (stereo not given) | · | · | 4 | 1.3 | ·
COc1ccc(NCC(O)Cn2c(C)c(C)c3ccccc32)cc1 (stereo not given) | · | 6% | 15 | 0.9 | 0
O=c1[nH]c(=O)n(-c2ccccc2)c2c1C(C(F)(F)F)(C(F)(F)F)N=C(C1CCCCC1)N2 | -12 | -3% | -7 | 1.2 | 14
CCOC(=O)N1CCN(C(=O)CCNS(=O)(=O)c2ccccc2)CC1 | · | · | -11 | -6.6 | ·
CC1CC(C)(C)NC(=S)N1CCCC(=O)Nc1ccc(F)cc1 (stereo not given) | · | 5% | -4 | · | 3
Cc1ccc(C(=O)CSc2nc(N)cc(=O)[nH]2)cc1C | · | · | 6 | 1.3 | ·
Cc1ccc(NC(=S)N2CCC(c3ccccc3)C2)c(Cl)c1 (stereo not given) | · | 1% | 7 | 8.9 | 6
CC1(C)Cc2ccccc2C(=O)N1 | -33 | -1% | 0 | -0.2 | -1
Cc1nn(C)c(C(=O)NNC(=S)NCc2ccco2)c1Cl | 32 | -3% | 10 | 1.6 | 11
COc1ccc(-c2c(C#N)c(N)nc(Sc3ccc(Cl)cc3)c2C#N)cc1 | · | 4% | 18 | -2.8 | ·
CN(CCCC1CCCC1)C(=O)CC1C(=O)NCCN1Cc1cccc(F)c1F (stereo not given) | · | · | -20 | 1.9 | ·
O=S(=O)(Nc1ccc(Br)cc1)c1cccc2nonc12 | · | · | 1 | 4.3 | ·
CCOC(=O)Nc1ccc2c(c1)N(C(=O)CN1CCN(C)CC1)c1ccccc1CC2 | · | · | 7 | 0.4 | ·
CN(CCCCCC(=O)/C=N/O)Cc1ccccc1 | -29 | -6% | -2 | -0.9 | 1
COc1ccc(/C=C2\SC(c3ccc(C)cc3)=NC2=O)cc1OC | -32 | -11% | 18 | 2.5 | -16
Additional structures.
SMILES | YopH PTP inh | Mtb growth | Mtb bLac sens | RecA intein inh | Arbovirus inh | others
Cc1ccc(N2C(=O)[C@@H]3C(C(=O)C(c4ccccc4)c4ccccc4)=NN[C@@H]3C2=O)cc1 | -12 | -5% | 1 | 1.9 | 8
CC(c1nccs1)N(C)c1nc2nonc2nc1N(C)C (stereo not given) | · | -11% | -3 | -1.3 | 6
Clc1cccc2c1Sc1ccccc1CC2N1CCNCC1 (stereo not given) | -5 | 3.1µM* | 99 | -0.2 | -36
Cc1ccc2[nH]c(=O)c(CN(CCO)C(=O)N(C)C)cc2c1 | 9 | -8% | -15 | 2.9 | ·
C=CCNC(=S)NNC(=O)Cn1c(-c2ccccc2)cc(=O)n2ncnc12 | · | -2% | 2 | 1.0 | ·
COc1cccc(C(=O)c2cc3cc(Cl)ccc3[nH]2)c1 | · | · | -5 | 0.9 | ·
O=C(CN1CCN(Cc2ccc(Cl)cc2)CC1)N/N=C/c1c[nH]c2ccccc12 | -10 | 8% | 0 | -1.7 | 2
COc1ccc2ncc(S(=O)(=O)c3ccccc3)c(N3CCC4(CC3)OCCO4)c2c1 | 46 | -4% | -10 | 3.7 | -11
CC1CC(CC(C)C(=O)NC(=S)Nc2ccc(S(N)(=O)=O)cc2)C(=O)O1 (stereo not given) | · | -7% | -10 | 0.5 | 12
CC(NC(=O)Cn1nc(C(=O)O)c2ccccc2c1=O)c1ccccc1 (stereo not given) | -32 | -3% | -1 | 0.7 | 6
O=S(=O)(c1ccccc1Cl)N1CCCC1c1nc(-c2ccccc2Cl)no1 (stereo not given) | -41 | -9% | 12 | 1.5 | -3
Cc1c(Cl)c([N+](=O)[O-])nn1CC(=O)NCC1CCCO1 (stereo not given) | · | 2% | 8 | -2.8 | -4
COCCSc1nnc(NC(=O)COC)s1 | -53 | -3% | 5 | -1.9 | 8
c1ccc(CSc2nnc(-c3ccco3)n2Cc2ccco2)cc1 | -10 | -6% | -13 | 3.7 | 3 | Arbovirus inh repeat=2

Screening results: PubChem, several laboratories
